# NPYLR7 agonist = agonists of mosquito NPYLR7 receptor, primary screen, cell-based, Aedes aegypti, calcium fluorescence, mosquito biting behavior; Aedes aegypti neuropeptide Y-like receptor 7 (NPYLR7); AID 1259423, 2018; activation, % at 10 µM; 270,000 compounds, 0.15% hits; HEK293T NPYLR7/Galpha15, GCaMP6s calcium fluorescence; in the data active means activation above about 40%;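 further: 0% = vehicle and 100% = reference agonist at the receptor; some compounds past the cut are filed as inactive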
# NPYLR7 agonist max-min = second read-out of NPYLR7 agonist, no call of its own (marks repeat the call); activation, %; measured here: Max-Min RFU normalised activation; some inactives read as strong as hits;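 span of the calcium signal over five minutes; 0% = vehicle and 100% = native peptide agonist; compound fluorescence can raise it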
# * marks the source's active call; other numbers are inactive results; & = joins results of further samples. Only part of the results is shown, so the mix of outcomes need not match the whole.
# Sample of the layout (3 entries):
SMILES,NPYLR7 agonist,NPYLR7 agonist max-min
O=C(c1cnn(Cc2ccccc2)c1)N1CCCC(Nc2cccc(F)c2)C1 (stereo unspecified),1,-1
CC(=O)Nc1ccc(OS(=O)(=O)N(C)C2CCCCC2)cc1,-5,-7
O=C(O)c1cccnc1Nc1cccc(F)c1,-4,-4

# The list itself, from the start:
SMILES,NPYLR7 agonist,NPYLR7 agonist max-min
O=C(c1cnn(Cc2ccccc2)c1)N1CCCC(Nc2cccc(F)c2)C1 (stereo unspecified),1,-1
CC(=O)Nc1ccc(OS(=O)(=O)N(C)C2CCCCC2)cc1,-5,-7
O=C(O)c1cccnc1Nc1cccc(F)c1,-4,-4
COc1cccc(C2C(=C(O)c3ccc(Cl)cc3)C(=O)C(=O)N2CCN(C)C)c1OC (stereo unspecified),7,6
Cc1cccc(N2CC(C(=O)N3CCN(C4CCCC4)CC3)CC2=O)c1 (stereo unspecified),6,2
CCC(C(=O)N1CCN(c2nc(C)nc(C)c2Cc2cccc(OC)c2)CC1)c1ccccc1 (stereo unspecified),21,22
COCCNC(=O)c1ccc(OC2CCN(Cc3c[nH]c4ccccc34)CC2)c(Cl)c1,1,-4
CCC(C)N(CC(=O)N(Cc1ccco1)Cc1cccn1C)C(=O)Nc1ccccc1C (stereo unspecified),-9,-3
OCCOc1ccccc1-c1nccn1CCc1cccc(F)c1,1,0
Brc1ccc(CN2CCOc3cccnc32)s1,1,-1
CC(C)N(Cc1ccc(OS(=O)(=O)c2ccc(F)cc2)cc1)C(=O)Nc1ccc(Br)cc1,-3,0
O=C(CN(CCN1CCOCC1)C(=O)Nc1c(Cl)cccc1Cl)N(Cc1ccc2c(c1)OCO2)Cc1ccco1,-8,-6
CC(=O)Nc1cc(F)c(S(=O)(=O)N2CCC(C)CC2)cc1Cl,-29,-26
CCCCn1c(C(=O)Nc2cccc(C(F)(F)F)c2)cc2c(=O)n(C)c(=O)n(C)c21,-2,-3
C=CCN(Cc1nccn1Cc1ccc(C)cc1)C(=O)CC(C)C,0,1
CCN1CCN(c2c(CN(CCOC)C(=O)N(C)C)c(C)nn2-c2ccccc2)CC1,6,8
O=C(Nc1cccc(-c2nc3ccccc3o2)c1)c1ccc(-c2ccccc2)cc1,-5,-7
Cc1cc(F)ccc1S(=O)(=O)N1CCCCC1CCNC(=O)C(=O)NCc1ccco1 (stereo unspecified),4,0
COC(=O)CC1C(=O)NCCN1C(=O)NC1CCCCC1 (stereo unspecified),5,1
Cc1nn(-c2ccccc2)c(C)c1CC(=O)N1CCC(n2ccnc2)C1 (stereo unspecified),9,5
COc1cc(C2N=C(N)Nc3nc4ccccc4n32)cc(OC)c1OC (stereo unspecified),0,4
COc1ccnc(N2CCC(C3CCCCCN3C(=O)c3ccccc3)CC2)n1 (stereo unspecified),9,9
O=C(CCN1C(=O)c2ccccc2C1=O)NCC1CCCO1 (stereo unspecified),-4,-6
Cc1ccc(-n2nnnc2CNS(=O)(=O)c2ccccc2C(F)(F)F)cc1,1,0

# Entries from the list above that contain bromine (2):
SMILES,NPYLR7 agonist,NPYLR7 agonist max-min
Brc1ccc(CN2CCOc3cccnc32)s1,1,-1
CC(C)N(Cc1ccc(OS(=O)(=O)c2ccc(F)cc2)cc1)C(=O)Nc1ccc(Br)cc1,-3,0

# The results go on:
SMILES,NPYLR7 agonist,NPYLR7 agonist max-min
Cc1nc(-c2cccc(C(=O)N(CCN(C)C)Cc3ccc(C)s3)c2)no1,1,-10
Cc1nc2sc3c(NC4CCCCC4)ncnc3c2c2c1COC(C)(C)C2,6,3
C(=C\c1nn2c(-c3ccco3)nnc2s1)/c1cccnc1,1,-2
CCN(Cc1cccc(C(=O)Nc2c(C)noc2C)c1)CC1CCCO1 (stereo unspecified),6,2
COc1cccc(C(=O)Nc2c3c(nn2-c2ccccc2C)CS(=O)C3)c1OC (stereo unspecified),-1,-3
CN[C@H](CC(C)C)C(=O)N[C@H]1C(=O)N[C@@H](CC(N)=O)C(=O)N[C@H]2C(=O)N[C@H]3C(=O)N[C@H](C(=O)N[C@H](C(=O)O)c4cc(O)cc(O)c4-c4cc3ccc4O)[C@H](O)c3ccc(c(Cl)c3)Oc3cc2cc(c3O[C@@H]2O[C@H](CO)[C@@H](O)[C@H](O)[C@H]2O[C@H]2C[C@](C)(N)[C@H](O)[C@H](C)O2)Oc2ccc(cc2Cl)[C@H]1O,2,-4
CCc1ccc(C(O)c2ncc(-c3ccccc3Cl)[nH]2)cc1 (stereo unspecified),2,3
Cc1cccc(-c2cn[nH]c2C2CCN(C(=O)CN)CC2)c1,3,0
C=CCc1c(C)nc2c(-c3ccccc3)cnn2c1Nc1ccncc1,2,3
COc1ccccc1C(=O)n1nc(C)n(-c2ccc(C)cc2)c1=S,0,-1
CC(=O)Nc1nnc(-c2cc(C)nn2C)o1,-5,0
CC1=NN(C(=O)c2ccccc2)C(C)(NN(C)c2ccccc2)C1 (stereo unspecified),-7,-18
COC(=O)CC(NC(=O)C1CCN(C(=O)c2cccs2)CC1)c1cccs1 (stereo unspecified),5,5
Cc1noc(-c2ccc(OC(F)(F)F)cc2)c1C(=O)NCc1ccc(F)c(F)c1,5,1
Cc1cccc2c(=O)c(-c3ccccc3)c(NC(=O)CC(C)C)oc12,5,3
Cc1nnc(SCCCNC(=O)C2CCS(=O)(=O)CC2)s1,1,-6
O=C(NCCc1ccc(F)cc1)N1CCC2(CCCNC2)C1 (stereo unspecified),-1,-3
COc1nn(C)cc1C(=O)N1CCC(C)CC1,3,7
Cc1cc(C(F)(F)F)n2ncc(C(=O)N3C[C@@H]4[C@H](C3)[C@H]3CC[C@@H]4O3)c2n1,6,2
CCc1nccn1CCNC(=O)c1cc(Cn2cnc3ccccc32)[nH]n1,7,1
C/C(Nc1ccc(C)cc1)=C(/C#N)C(N)=O,1,0
C=CCN1C(=O)CNC12CCN(C(=O)C1CCC1)CC2,28,19
COc1ccc(C(C2Sc3ncnn3C2=O)N2CCN(C)CC2)cc1OC (stereo unspecified),2,2
CCOC(=O)c1ccc(Nc2nnc(-c3cc4cc(Br)ccc4oc3=O)s2)cc1,11,20
Nc1nnc(SCc2cccc(I)c2)s1,-1,-5
COc1ccc(CCNC(=O)COn2nnc3ccc(Cl)cc32)cc1,-1,5
O=C(NCCOc1ccccc1Cl)c1cccnc1N1CCCC1c1cccnc1 (stereo unspecified),6,5
S=c1[nH]nc(Cn2cncn2)n1CC1CCCCC1,-7,-14
C=CCN(CC(=O)N1CCc2sccc2C1COc1ccc(Cl)c(C)c1)C(=O)COC (stereo unspecified),-3,1
Nc1ccccc1-c1nc(-c2cccc(N3CCCC3=O)c2)cs1,2,2
Cc1ccc(-c2ccc(CCC(=O)NCc3c(F)cccc3Cl)n2-c2ccc(CC#N)cc2)c(C)c1,2,-1
COc1ccc(C(=O)NCCNC(=O)[C@H]2CCCN2C(=O)CCc2ccccc2)cc1,3,10
CC1CCN(C(=O)N2CCN(S(=O)(=O)N3CCOCC3)CC2)CC1,9,6
CCN(CCN1C(=O)CSC1c1ccc(C)cc1)C(=O)c1ccc(F)cc1 (stereo unspecified),-6,-6
c1coc(-c2nnc(SCc3cn4ccccc4n3)n2C2CCCCC2)c1,0,0
COc1ccc(C2CCCCCN2C(=O)CC2c3ccccc3C=CN2C(C)=O)cc1 (stereo unspecified),13,5

# Full records, looked up by structure.
# Shown for `CCN(CCN1C(=O)CSC1c1ccc(C)cc1)C(=O)c1ccc(F)cc1` (stereo unspecified) : NPYLR7 agonist: -6; NPYLR7 agonist max-min: -6
# Shown for `CC1CCN(C(=O)N2CCN(S(=O)(=O)N3CCOCC3)CC2)CC1` : NPYLR7 agonist: 9; NPYLR7 agonist max-min: 6
# Shown for `O=C(NCCOc1ccccc1Cl)c1cccnc1N1CCCC1c1cccnc1` (stereo unspecified) : NPYLR7 agonist: 6; NPYLR7 agonist max-min: 5

# (further entries)
SMILES,NPYLR7 agonist,NPYLR7 agonist max-min
COc1ccc2[nH]c3ccc([N+](=O)[O-])cc3c(=O)c2c1,6,5
O=C(Nc1nccs1)c1cc(S(=O)(=O)N2CCOCC2)ccc1Cl,-7,-17
Cc1ccc(Cn2nnc3c(SCC(=O)N4CCOCC4)ncnc32)cc1,15,17
Cc1ccsc1CN(Cc1ccccc1)C(=O)CN(CC(C)C)C(=O)/C=C/c1ccc([N+](=O)[O-])cc1,6,10
COc1ccc(NC(=O)c2cc3nc(-c4ccco4)cc(C(F)(F)F)n3n2)c(OC)c1,24,24
CCn1c(O)c(C=Nc2c(C#N)c(C)c(C)n2C2CCCCC2)c(=O)n(CC)c1=S,69*,57*
CCOC(=O)c1cn[nH]c1S(=O)(=O)N(C)c1cccc(C)c1,2,-3
Cc1c(Nc2ncccc2C(=O)O)cccc1C(F)(F)F,-8&-15,-11&-22
CC(C)Cc1cc(C(=O)N2CCCC3(CCNCC3)CC2)nc(=O)[nH]1,16,10
Cc1ccc(C)c(Nc2nc(NCCO)nc3nccnc23)c1,3,5
CCN(CC)CCNC(=O)c1ccc(-c2cc(-c3cccc(C(F)(F)F)c3)n[nH]2)cc1,4,-2
CCCOc1ccc(C(=O)CCC(=O)NC2CCS(=O)(=O)C2)cc1 (stereo unspecified),-1,18
COCCCN(CC(=O)N1CCc2sccc2C1COc1cccc(OC)c1)C(=O)Nc1ccc(C)cc1 (stereo unspecified),-2,2
CCOc1ccccc1-c1cc(-c2nnc(SCc3ccc(C)cc3)n2C)c2ccc(Oc3ccccc3)cc2n1,-5,-7
CC(SC1CCCC1)C(=O)N1c2ccccc2NC(=O)C1(C)C (stereo unspecified),-17,-20
Cc1cccc(CN2CCCC3(CCN(Cc4cccc5cnccc45)C3)C2)c1 (stereo unspecified),14,3
CN(Cc1ccco1)C(=O)CN(CC(=O)N(C)Cc1ccco1)C1CCc2ncnn2C1 (stereo unspecified),3,-2
COc1cn(CC(=O)Nc2ccc3c(c2)OCCO3)c(CSc2nccc(C)n2)cc1=O,-4,-11
CC(C)(C)c1ccc(-c2cnn(CCC(N)=O)c2)cc1,6,-1
Cn1cc(CCC(=O)N2CCCC(C(=O)Nc3cccc(-c4ccc(F)cc4)c3)C2)cn1 (stereo unspecified),-8&12,-9&8
CN(Cc1ccccc1)C1CCCN(Cc2ccc(O)cc2)C1 (stereo unspecified),-2,-4
Cc1cccc(-c2n[nH]c(=S)n2-c2ccc(Cl)cc2)c1,-3,4
Cn1cc(-c2ccc(C(=O)N3CCCN(c4ncccn4)CC3)cn2)cn1,4,3
O=C1CC(C(=O)OCCc2cccs2)c2ccccc2N1 (stereo unspecified),8,8
CCc1nc2ccc(C(=O)NCCN3CCOCC3)cn2c1N(C)CCCc1ccccc1,0,12
CC12CCC(CC1=NN=Cc1ccccc1Cl)C2(C)C (stereo unspecified),-1,-5
COc1ccc(-c2nccc3n[nH]c(C4CC4)c23)cc1,18,13
CN(C)c1nnc(SCC(Cl)=CCl)s1,2,1
CC1CCN(C(=S)NCc2ccc(F)cc2)CC(C)(C)C1 (stereo unspecified),-7,-12
Cc1cccn2c(=O)nc(SCc3ccc([N+](=O)[O-])cc3)nc12,3,0
C=CCOC(=O)N1CCC(Oc2ccc3ncccc3c2)(C(=O)O)CC1,3,0
COc1ccc(C(O)=C2C(=O)C(=O)N(CCCN(C)C)C2c2cccc(OC)c2)cc1 (stereo unspecified),2,7
COCCCN1COc2ccc3cc(-c4ccc(OC)c(OC)c4)c(=O)oc3c2C1,17,10
Cc1cccc(-c2cc(N)n(-c3ccc(C(=O)Nc4cccc5c4CCCC5)cc3)n2)c1,-4,-7
Cc1ccc(N2CCn3c2nc2c3c(=O)n(CCC(C)C)c(=O)n2C)cc1,7,10
CN(Cc1ccoc1)Cc1cn[nH]c1-c1ccc(F)cc1,4,0
CN(C)C(=O)C(NC(=O)Nc1ccc2c(c1)OCCCO2)c1ccccc1 (stereo unspecified),3,1
CN(C)S(=O)(=O)c1cccc(NC(=O)NCCc2nnc3n2CCC3)c1,2,-2
O=c1nc(SCc2ccccc2F)c2c(n1Cc1ccncc1)CCC2,-3,-5
O=S(=O)(NCCOc1ccc(-c2ccccc2)nn1)c1cccc(C(F)(F)F)c1,1,-10
CCN(CC)c1onc(-c2ccc(F)cc2)c1CN(Cc1ccco1)C(=O)c1ccco1,9,13
CCCn1ccnc1CN1CCc2[nH]cnc2C1Cc1ccccc1 (stereo unspecified),-1,16
CN1C(=O)NC(c2cccc(F)c2)C2=C1CN(CCc1ccccc1)C2=O (stereo unspecified),-7,-5
Cc1ccc2cc(CCNC(=O)c3ccccc3C(F)(F)F)c(=O)[nH]c2c1,0,9
O=C(Nc1ccc(-c2onc3c2CCCC3)cc1)c1cc(C(F)(F)F)ccc1C(F)(F)F,2,2
O=C(Nc1c(F)cccc1Br)C1COc2ccccc21 (stereo unspecified),-9,-11
Cc1cc(C)n(C2CCN(C(=O)c3ccc(C)c(C)c3)CC2)n1,-8,-8
FC(F)(F)c1ccc(Cl)c(NC(=S)NC2CC2)c1,2,2

# Fetched by structure from the list above:
SMILES,NPYLR7 agonist,NPYLR7 agonist max-min
CCN(CC)c1onc(-c2ccc(F)cc2)c1CN(Cc1ccco1)C(=O)c1ccco1,9,13
CN(C)S(=O)(=O)c1cccc(NC(=O)NCCc2nnc3n2CCC3)c1,2,-2

# (cont.)
SMILES,NPYLR7 agonist,NPYLR7 agonist max-min
CCc1nnc(-c2cc3ccccc3n2Cc2cc(OC)cc(OC)c2)o1,-3,-3
CCS(=O)(=O)NCCN1CCCC1c1cccc(N(C)C)c1 (stereo unspecified),1,7
CCn1cc(-c2c(-c3ccccc3)ncn2Cc2cn3ccc(C)cc3n2)cn1,-4,-7
Cc1ccc2[nH]cc(-c3cc(N4CCN(C)CC4)nc(N)n3)c2c1,3,0
CC1(C)C(=O)OC(c2ccccc2F)C2(CCCCC2)C1=O (stereo unspecified),-15,-20

# Assay outcomes deposited in PubChem by Fisher Drug Discovery Resource Center.
